Bioassay records as filed in PubChem BioAssay.
A1 inh = inhibitors of the anti-apoptotic protein A1, read as caspase activation. MEF A1-2A-BIM cells, Caspase-Glo 3/7 luminescence, 3 h; percent of clofoctol response, vehicle zero. caspase activation, % (no concentration beside the values). hit rate 0.066% among 330,000. AID 2462;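 active means over half of replicate activation scores above 10%, or exactly half above 10 with the replicate mean above 10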;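 further: wells of about 30 µL received 50 nL stock; many hits fall short of the cut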
AF4-AF9 inh = MLL-AF4/AF9 protein interaction inhibition | AlphaScreen, biotin-AF4 peptide binding to FLAG-AF9 | AID 651704 | P42568 | inhibition, % at 10 µM | hit rate 0.47% among 350,000;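 active means every replicate reaching a set inhibition limit, whatever the replicate mean, cut at about 25% in these data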;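 further: 0% = plate neutral control median and 100% = total signal loss; the record names both 10 and 1 µM as test concentration; the first replicate is given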
Target sequence (P42568 whole entry, looked up): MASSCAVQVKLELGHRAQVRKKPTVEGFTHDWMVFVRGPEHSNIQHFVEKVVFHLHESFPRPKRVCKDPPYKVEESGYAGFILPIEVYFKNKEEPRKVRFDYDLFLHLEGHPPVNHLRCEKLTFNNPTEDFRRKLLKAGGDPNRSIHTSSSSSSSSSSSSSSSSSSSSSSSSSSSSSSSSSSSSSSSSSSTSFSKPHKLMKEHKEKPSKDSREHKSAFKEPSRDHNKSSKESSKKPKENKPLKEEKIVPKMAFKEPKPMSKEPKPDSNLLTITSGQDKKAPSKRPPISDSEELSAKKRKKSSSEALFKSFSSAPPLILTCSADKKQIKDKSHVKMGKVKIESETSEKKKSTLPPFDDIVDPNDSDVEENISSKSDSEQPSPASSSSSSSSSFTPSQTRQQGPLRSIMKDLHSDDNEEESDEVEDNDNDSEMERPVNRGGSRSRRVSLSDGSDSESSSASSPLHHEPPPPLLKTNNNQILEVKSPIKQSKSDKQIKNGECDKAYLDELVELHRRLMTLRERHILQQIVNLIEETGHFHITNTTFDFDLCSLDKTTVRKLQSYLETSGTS
E coli growth = inhibitors of Escherichia coli growth; OD600, 23 h; stronger effect = lower value; OD600 absorbance (test concentration not listed); hit rate 0.21% among 330,000; AID 1053175;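 active means OD600 absorbance below the run mean of sample wells minus 3.6 SD, in any replicate, cut at about 0.56 in these data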;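 further: stock transfer was 300 nL into about 60 µL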
UCH37 DUB inh = blocks the human deubiquitinase UCH37. Q9Y5K5. purified proteasome/UCH37, Ub-AMC cleavage fluorescence. inhibition, % (no concentration beside the values). hit rate 0.33% among 330,000. AID 588478;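 active means mean of two replicates above 20%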;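 further: 0% = compound-free wells with enzyme and 100% = wells lacking proteasome; stock transfer was 100 nL into about 20 µL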
Target sequence (Q9Y5K5 whole entry, looked up): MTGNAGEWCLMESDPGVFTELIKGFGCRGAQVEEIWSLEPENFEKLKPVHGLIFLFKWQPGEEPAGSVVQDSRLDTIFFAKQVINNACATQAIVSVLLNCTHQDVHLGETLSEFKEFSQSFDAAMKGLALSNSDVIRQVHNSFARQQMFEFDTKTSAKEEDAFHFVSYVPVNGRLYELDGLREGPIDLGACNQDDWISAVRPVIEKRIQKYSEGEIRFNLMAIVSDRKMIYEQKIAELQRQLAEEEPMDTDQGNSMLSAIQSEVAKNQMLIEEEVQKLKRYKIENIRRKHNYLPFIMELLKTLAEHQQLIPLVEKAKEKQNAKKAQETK
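Material: Human UCH37 enzyme supplied as purified proteasome complex | Schedule: 30 min compound-proteasome preincubation then 25 min substrate reaction, room temperature | Detection: AMC fluorescence from Ub-AMC cleavage, excitation 355 nm, emission 460 nm | Benchmarks: Wells without proteasome as full block, compound-free enzyme plus substrate as uninhibited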
rRNA inh HTS = selective bacterial rRNA inhibition in E. coli. hit rate 1.6% among 350,000. GFP signal change (wild-type ribosome), % (test concentration not listed). E. coli WT GFP vs humanized-ribosome RFP mutants, fluorescence, 24 h; stronger effect = lower value; DMSO median 0, no signal -100. AID 720706;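 active means significant combined selectivity score with lowered wild-type GFP, culture density cut under 30%, mutant RFP and density less affected; inactive means any of these conditions unmet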; further: one replicate is shown; some compounds called inactive have numbers as strong as hits
T cruzi inh = T. cruzi replication inhibition | hit rate 1.4% among 300,000 | inhibition, % (test concentration not listed) | T. cruzi beta-gal in NIH3T3, luminescence, 90 h;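 active means mean inhibition across valid replicates above about 55%, limit read from the data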;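 further: signal also drops with host cell toxicity which is not excluded here; 0% = plate median of DMSO wells and 100% = zero luminescence signal; higher percent means less beta-gal luminescence so fewer parasites; stock transfer was 50 nL into about 50 µL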
FGF22 binding = binders of recombinant human FGF22 by thermal shift | SYPRO orange fluorescence; percent of sucrose octasulfate shift, DMSO zero | hit rate 1.5% among 340,000 | Q9HCT0 | calls only at 9.99 µM;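 active means melting point raised past a set limit in the mean and every replicate; three in four hits are not shown here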
Target sequence (Q9HCT0 whole entry, looked up): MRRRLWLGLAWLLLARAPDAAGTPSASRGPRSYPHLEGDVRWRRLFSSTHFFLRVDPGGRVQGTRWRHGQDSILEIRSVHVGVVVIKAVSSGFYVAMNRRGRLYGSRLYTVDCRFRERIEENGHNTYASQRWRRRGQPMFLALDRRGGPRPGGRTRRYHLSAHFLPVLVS
Beta apoptosis = beta cell apoptosis inhibition; INS-1E cytokine-induced death, ATP luminescence, 48 h; percent of positive-control rescue, neutral wells zero; protection from apoptosis, % (no concentration beside the values); hit rate 0.8% among 300,000;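 active means all replicates at 75% or more, or half of them and the mean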;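 further: 0% = cytokine-treated negative control wells and 100% = positive control rescue; higher means more ATP so stronger rescue from cytokine killing; wells of about 40 µL received 100 nL stock; the first replicate is given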
rRNA inh HTS OD600 = recorded beside rRNA inh HTS, whose call it bears; OD600 change, %; measured here: OD600 growth;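 optical density of the mix in the first replicate; 0 = DMSO median and -100 = no signal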
rRNA inh HTS RFP = also measured in rRNA inh HTS; calls as there; RFP signal change, %; measured here: RFP humanized mutant strains;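 first replicate; 0 = DMSO median and -100 = no signal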
Numbers without * were called inactive; i = inactive; x = not tested or not shown. This is a subset, so the mix of outcomes need not match the whole.

Short forms – A = A1 inh; B = AF4-AF9 inh; C = E coli growth; D = UCH37 DUB inh; E = rRNA inh HTS; F = rRNA inh HTS OD600; G = rRNA inh HTS RFP; H = T cruzi inh; I = FGF22 binding; J = Beta apoptosis
(1) CCC(=O)N1N=C(c2ccc(C)o2)CC1c1ccc(N(C)C)cc1 (stereo not given)
  A: 0.7; B: 15; C: 0.68; D: 1.1; E: -12; F: -12; G: -3.4; H: 1; I: i; J: -1
(2) CC1(C)CC(=O)C=C(Nc2ccccc2)C1
  A: -0.4; B: -3.9; C: 0.63; D: 5.9; E: x; F: x; G: x; H: 13; I: i; J: 2
(3) Cc1ccc(NC(=O)CN(C)C(=O)COC(=O)COc2ccc(C#N)cc2)cc1
  A: 0.7; B: -2.4; C: 0.64; D: 1.1; E: 4; F: 7; G: 1.9; H: 3; I: i; J: 0
(4) CN(C(=O)c1ccc(NC(=O)c2ccco2)cc1)c1ccccc1
  A: -6.7; B: -0.3; C: 0.72; D: 1.1; E: x; F: x; G: x; H: -15; I: i; J: 36
(5) COc1ccc2[nH]c(=O)c(CN(Cc3ccc4c(c3)OCO4)C(C)=O)cc2c1
  A: -0.6; B: x; C: 0.69; D: -4.6; E: x; F: x; G: x; H: 1; I: x; J: -5
(6) CC(CN1C(C)CCCC1C)OC(=O)c1cccc(F)c1 (stereo not given)
  A: 0.1; B: -9.0; C: 0.64; D: 1.0; E: 12; F: 17; G: 0.5; H: -5; I: i; J: -3
(7) CC1Cc2ccccc2N1C(=O)COc1nc2ccccc2nc1N1CCOCC1 (stereo not given)
  A: 1.7; B: x; C: 0.73; D: -1.6; E: x; F: x; G: x; H: 18; I: x; J: 0
(8) C/C(=N\O)C(=O)NCCN1CCCCC1
  A: 0.0; B: -11; C: x; D: x; E: 5; F: 3; G: -0.2; H: -19; I: i; J: 4
(9) CN1CCN(c2ccc(NC(=O)c3ccc(-c4ccc(Br)cc4)o3)cc2)CC1
  A: -0.4; B: 6.2; C: 0.53; D: 7.4; E: -2; F: 4; G: -1.8; H: 58*; I: i; J: 24
(10) Cc1ccccc1C(=O)NNC(=O)c1ccc2nc[nH]c2c1
  A: 0.6; B: -1.0; C: 0.68; D: 0.3; E: 8; F: 11; G: 0.2; H: -7; I: i; J: x
(11) O=C(NC1CCN(C(=O)c2cccs2)CC1)c1ccccc1
  A: 0.2; B: -3.8; C: 0.72; D: 1.4; E: 2; F: 5; G: -2.5; H: -18; I: i; J: -3
(12) CCCC(CCC)=NNC(=O)c1ccccc1F
  A: -0.8; B: 0.7; C: 0.71; D: 3.2; E: 9; F: 6; G: 0.5; H: -16; I: i; J: 2
(13) COc1cccc(CNC(=O)Cc2ccc(-c3ccccc3)cc2)c1
  A: 0.8; B: -1.3; C: x; D: x; E: 0; F: -5; G: 1.9; H: 19; I: i; J: 0
(14) CC(C)N=C1NN=C(c2cccs2)CS1
  A: -0.1; B: 0.3; C: 0.61; D: 4.4; E: -1; F: -1; G: 1.7; H: -11; I: i; J: -3
(15) CC(C)n1cnc2c(N(C)c3ccccc3)nc(N(CCN(C)C)Cc3ccccc3)nc21
  A: 1.0; B: 18; C: 0.68; D: 1.6; E: -54; F: -81; G: -22; H: 51; I: i; J: 2

Copied from the listing (four entries):
Short forms – A = A1 inh; B = AF4-AF9 inh; C = E coli growth; D = UCH37 DUB inh; E = rRNA inh HTS; F = rRNA inh HTS OD600; G = rRNA inh HTS RFP; H = T cruzi inh; I = FGF22 binding; J = Beta apoptosis
(1) CCC(=O)N1N=C(c2ccc(C)o2)CC1c1ccc(N(C)C)cc1 (stereo not given)
  A: 0.7; B: 15; C: 0.68; D: 1.1; E: -12; F: -12; G: -3.4; H: 1; I: i; J: -1
(2) CC1(C)CC(=O)C=C(Nc2ccccc2)C1
  A: -0.4; B: -3.9; C: 0.63; D: 5.9; E: x; F: x; G: x; H: 13; I: i; J: 2
(3) Cc1ccc(NC(=O)CN(C)C(=O)COC(=O)COc2ccc(C#N)cc2)cc1
  A: 0.7; B: -2.4; C: 0.64; D: 1.1; E: 4; F: 7; G: 1.9; H: 3; I: i; J: 0
(4) CN(C(=O)c1ccc(NC(=O)c2ccco2)cc1)c1ccccc1
  A: -6.7; B: -0.3; C: 0.72; D: 1.1; E: x; F: x; G: x; H: -15; I: i; J: 36

Next section:
Short forms – A = A1 inh; B = AF4-AF9 inh; C = E coli growth; D = UCH37 DUB inh; E = rRNA inh HTS; F = rRNA inh HTS OD600; G = rRNA inh HTS RFP; H = T cruzi inh; I = FGF22 binding; J = Beta apoptosis
(16) CCOC(=O)N1CCN(C(=S)Nc2ccccc2C)CC1
  A: 0.3; B: 0.8; C: 0.69; D: 4.9; E: 7; F: -4; G: 1.9; H: -9; I: i; J: -2
(17) Cc1ccc(N(C)S(=O)(=O)c2nnc(NC(=O)c3ccco3)s2)cc1
  A: -1.1; B: -12; C: 0.68; D: 9.3; E: 3; F: 10; G: 0.4; H: -2; I: i; J: 3
(18) Cc1ccc(NC(=O)Cn2ccsc2=N)c([N+](=O)[O-])c1
  A: -0.4; B: 2.1; C: 0.7; D: 4.2; E: 11; F: 9; G: -1.3; H: 2; I: x; J: x
(19) CC1(C)CC(=O)C2=C(C1)N(N1CCOCC1)C(N)=C(C#N)C2c1cccnc1 (stereo not given)
  A: 0.3; B: x; C: 0.73; D: 1.8; E: x; F: x; G: x; H: -11; I: x; J: 3
(20) COc1ccccc1N/C=C/c1onc(C)c1[N+](=O)[O-]
  A: -6.3; B: x; C: 0.74; D: 2.5; E: x; F: x; G: x; H: 13; I: x; J: 24
(21) COc1ccc(OCCC(=O)OCC(=O)Nc2cccc(S(=O)(=O)N3CCOCC3)c2)cc1
  A: -0.8; B: 0.2; C: 0.68; D: 0.8; E: -3; F: -5; G: -0.6; H: -10; I: i; J: -3
(22) CCOC(=O)N1CCN(C(=O)c2cn(CCOC)c(=O)c3c2c2ccccc2n3C)CC1
  A: -0.4; B: x; C: 0.69; D: -131; E: x; F: x; G: x; H: 9; I: x; J: -2
(23) O=C(O)CC1(CC(=O)N2CCOCC2)CCCC1
  A: 0.4; B: -1.1; C: 0.67; D: 2.6; E: 6; F: 12; G: -1.8; H: -13; I: i; J: -4
(24) CC1CCN(c2ccc(C(=O)O)cc2NS(=O)(=O)c2ccc(Br)cc2)CC1
  A: -2.1; B: x; C: 0.69; D: 0.2; E: x; F: x; G: x; H: -4; I: x; J: -7
(25) CNC(=O)Nc1ccc2nc(C)oc2c1
  A: 0.2; B: -5.6; C: 0.67; D: 7.2; E: 4; F: 10; G: 1.3; H: -11; I: i; J: -2
(26) Cc1cc(=O)oc2c3c(cc(OCC(=O)NCC(=O)N[C@H](C(=O)O)C(C)C)c12)OC(C)(C)CC3
  A: -0.8; B: -1.5; C: 0.7; D: i; E: 19; F: 18; G: -3.6; H: 1; I: i; J: -3
(27) Cc1[nH]n(-c2ccccc2)c(=O)c1/C=C1/C=c2ccccc2=N1
  A: x; B: 1.1; C: 0.67; D: 2.9; E: -3; F: 19; G: -1.6; H: -16; I: i; J: x
(28) Cc1ccc(C(=O)CC(C(=O)O)c2cn(CCC#N)c3ccccc23)cc1 (stereo not given)
  A: -0.2; B: -0.7; C: 0.74; D: 7.6; E: -4; F: -2; G: -5.6; H: x; I: i; J: x
(29) CC1=CC(C)(C)NC(=S)N1c1cccc2cc(S(=O)(=O)O)ccc12
  A: 0.4; B: -2.2; C: 0.66; D: -2.1; E: 18; F: 19; G: 5.8; H: -21; I: i; J: -7
(30) Cc1cccc(OCC(=O)Nc2nnc(S(=O)(=O)N3CCCCCC3)s2)c1
  A: -0.7; B: -12; C: 0.7; D: 7.2; E: 1; F: -8; G: -0.4; H: 0; I: i; J: 6
(31) CCOC(=O)C1CCN(C(=O)C2c3ccccc3C(=O)N(C)C2c2ccc(OC)cc2)CC1 (stereo not given)
  A: 0.2; B: x; C: 0.79; D: -0.4; E: x; F: x; G: x; H: -6; I: x; J: 1
(32) O=S(=O)(NCc1cn2ccccc2n1)c1ccccc1F
  A: 0.8; B: -5.4; C: 0.71; D: 2.4; E: 5; F: 3; G: 5.2; H: -7; I: i; J: -11
(33) O=C(NCC1CCCO1)c1nnc(Cc2ccc(F)cc2)o1 (stereo not given)
  A: 0.3; B: 1.4; C: 0.7; D: 2.5; E: 4; F: 6; G: -2.2; H: 6; I: i; J: -12
(34) Cc1cccc(C)c1NC(=O)N1CC=CCC1
  A: 0.3; B: -3.8; C: 0.7; D: 3.2; E: 8; F: 12; G: -2.0; H: -7; I: x; J: -2
(35) Cc1ccc(S(=O)(=O)N2CCCCC2)cc1NC(=O)c1ccc(Cl)nc1
  A: x; B: 2.6; C: 0.72; D: -2.7; E: -2; F: 4; G: 0.7; H: x; I: i; J: x
(36) NC(=O)c1ccc(NC(=O)C2COc3ccccc3O2)cc1 (stereo not given)
  A: -0.9; B: 1.6; C: 0.68; D: -1.1; E: 11; F: 6; G: 15; H: -8; I: i; J: x
(37) COc1ccc(-c2csc(C3=C(O)CN(Cc4ccc(S(N)(=O)=O)cc4)C3=N)n2)cc1OC
  A: -0.1; B: x; C: 0.7; D: 13; E: x; F: x; G: x; H: -15; I: x; J: -2
(38) Cc1onc(-c2ccccc2Cl)c1C(=O)Nc1ccc(N2CCOCC2)cc1
  A: 0.7; B: x; C: 0.69; D: 4.0; E: x; F: x; G: x; H: 4; I: x; J: 6
(39) CCC(C)(C)NC(=O)CN(C(=O)c1ccc(N2CCCC2)nc1)c1ccc(F)cc1
  A: 0.1; B: -7.5; C: 0.71; D: 1.3; E: 3; F: 3; G: 1.6; H: -1; I: i; J: x
(40) CC(CCc1ccccc1)N1CCN(C)CC1 (stereo not given)
  A: 0.2; B: -2.6; C: 0.64; D: 0.7; E: 14; F: 7; G: 0.5; H: 49; I: i; J: -29
(41) CC(=O)CSc1nnc(CSc2ncccn2)n1C1CCCCC1
  A: 0.4; B: x; C: 0.62; D: 1.4; E: x; F: x; G: x; H: -10; I: x; J: -1
(42) CCC(C(=O)NC(C)(C)C)N(Cc1ccco1)C(=O)Cn1nnc(-c2ccc(F)cc2)n1 (stereo not given)
  A: -0.6; B: -0.9; C: 0.7; D: 0.7; E: 13; F: 0; G: 1.2; H: 2; I: i; J: -3
(43) O=C(NC1CCCC1)C(c1ccccc1)N(Cc1ccc2c(c1)OCO2)C(=O)Cc1cccs1 (stereo not given)
  A: -0.6; B: x; C: 0.74; D: 2.9; E: x; F: x; G: x; H: -18; I: x; J: -1
(44) COc1cccc(NC(=O)COC(=O)c2ccccc2C(=O)N(C)c2ccccc2)c1
  A: 0.0; B: 2.3; C: 0.68; D: 3.7; E: -11; F: -5; G: -0.8; H: x; I: i; J: 5
(45) Cc1cc(C)n2cc(CSc3nnnn3-c3ccc(Cl)cc3)nc2n1
  A: -0.3; B: x; C: 0.69; D: -0.9; E: x; F: x; G: x; H: x; I: x; J: 8
(46) O=C(COc1ccc(Br)cc1Cl)NC(=O)NC1CCCC1
  A: -0.7; B: 0.4; C: 0.65; D: 5.2; E: x; F: x; G: x; H: x; I: i; J: -9
